# Sfp inh = blocks B. subtilis Sfp PPTase activity. Q9F4F7. Potency, µM, for the others: max response, negative = inhibition, usual class: inhibitors. actives 3.5% (n = 310,000). AID 1490. Biochemical Sfp PPTase activity, qHTS; active = well fitted inhibition curve with a large enough effect; inconclusive = small, poorly fitted or top-dose-only effect, or another doubt; inactive = no such curve, though single readings can be large or run the other way;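 also: the enzyme is Sfp with the accession as filed and its product quenches rhodamine fluorescence; potency is read from the fitted curve at half-maximal effect; 0% = enzyme reaction without inhibitor and -100% = no enzyme wells; top concentration of the series not given in the record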
#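 Buffer: 50 mM Hepes-Na pH 7.6, 10 mM MgCl2, 0.01% Nonidet P-40, 0.01% BSA. Enzyme 15 nM, pre-exposed to compound 15 min; substrates then added and fluorescence change tracked over 30 min.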
# TRPML1 blocker = inhibitors of human TRPML1 channel; activity change, negative = inhibition, % (test concentration not listed); Q9GZU1; TRPML1-inducible cells, Ca2+ dye fluorescence, FDSS; active compounds read low; inhibition of EC80 agonist-evoked calcium signal; AID 624415; actives 0.02% (n = 390,000); in the data active means activity change below about -50%; inconclusive means about -30% to -50%; inactive means above about -30%;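 also: stimulus is agonist 54-4 at its EC80 concentration; % is scaled to controls: 0 for no effect and ±100 for the full control effect; compound concentration not given in the record; the text of the record puts the active cut at -80%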
# Target sequence (Q9GZU1 whole entry, looked up): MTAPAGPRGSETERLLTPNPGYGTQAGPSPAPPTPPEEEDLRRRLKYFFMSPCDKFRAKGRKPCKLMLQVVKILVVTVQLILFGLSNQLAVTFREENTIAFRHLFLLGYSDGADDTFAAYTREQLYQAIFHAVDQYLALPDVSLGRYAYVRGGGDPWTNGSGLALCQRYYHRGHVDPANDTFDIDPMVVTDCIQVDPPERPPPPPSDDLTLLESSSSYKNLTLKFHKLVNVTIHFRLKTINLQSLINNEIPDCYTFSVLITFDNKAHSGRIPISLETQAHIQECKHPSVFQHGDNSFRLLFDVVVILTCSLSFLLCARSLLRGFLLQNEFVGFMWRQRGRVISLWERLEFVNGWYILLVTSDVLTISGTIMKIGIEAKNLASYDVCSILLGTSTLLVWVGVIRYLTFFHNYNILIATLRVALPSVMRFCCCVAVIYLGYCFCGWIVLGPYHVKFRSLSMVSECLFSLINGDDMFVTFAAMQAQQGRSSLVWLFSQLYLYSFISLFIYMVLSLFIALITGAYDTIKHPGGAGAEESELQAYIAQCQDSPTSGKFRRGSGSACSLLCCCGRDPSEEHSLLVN
#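 Calcium fluorescence in TRPML1-DL cells induced overnight with Tet: a 110 s read after compound pin addition, then a 110 s antagonist read after challenge with 54-4 at 4 uM final (EC80).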
# ClpP mod = qHTS Assay for Activators of ClpP | ATP-dependent Clp protease proteolytic subunit (Bacillus subtilis (strain 168)), P80244 | purified B. subtilis ClpP, FRET peptide cleavage, 20 min | Potency, µM (series often up to 57.5 µM), for inactives: at the top dose activity change, negative = active | actives 1.9% (n = 340,000) | AID 651965, 2013; active = well fitted falling curve with a large enough effect; inconclusive = small, poorly fitted or top-dose-only effect; inactive = no such curve, though single readings can be large or run the other way; also: potency is read from the fitted curve at half-maximal effect; the source files actives as falling curves though it sought activators and does not explain the sign; nearly all actives have a fitted effect of over 65% in size; many hits overshoot -100%
# Target sequence (P80244 whole entry, looked up): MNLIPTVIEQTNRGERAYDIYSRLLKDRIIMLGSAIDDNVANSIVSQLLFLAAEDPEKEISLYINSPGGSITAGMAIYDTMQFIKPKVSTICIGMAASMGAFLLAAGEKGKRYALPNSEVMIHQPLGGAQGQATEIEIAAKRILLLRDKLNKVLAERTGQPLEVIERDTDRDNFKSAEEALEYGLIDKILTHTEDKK
#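 Purified B. subtilis ClpP, 10 microg/mL final in Tris/HCl pH8 with KCl, BSA, glycerol and Tween-20, cleaved an Abz/nitrotyrosine-quenched decapeptide. Fluorescence (ex 320, em 430) was read at 0 and 20 min at room temperature. Delta was normalized to 5.8 microM ADEP and DMSO/no-enzyme controls.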
# TRPV1 potentiator = enhances activation of the human vanilloid receptor TRPV1; potentiation, % at 8.33 µM; Q8NER1; TRPV1-expressing cells, Fluo-8 calcium influx, capsaicin EC20 potentiation; host cell line not named in the record; control for the full effect not named in the record; actives 0.02% (n = 320,000); active means potentiation above 80%; inconclusive means 30% to 80%; inactive means below 30%; also: 0% is about no effect
#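 TRPV1-expressing cells were cultured overnight at 35.5C and loaded with Fluo-8 calcium dye for 40 to 90 min at room temperature. After a 10 s baseline, compound was added and calcium influx was read kinetically for 3 min (ex 480/em 520 nm).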
# PINK1 expr mod = PINK1 expression modulation; Potency, µM (doses to about 76.6 µM), without a hit: top-dose activation (PINK1 increase), actives largely listed as activators; actives 0.2% (n = 410,000); PINK1 immunofluorescence, high-content cytometry, 24 h; AID 624263; active = well fitted activation curve with a large enough effect; inconclusive = small, poorly fitted or top-dose-only effect; inactive = flat fitted curve, though single readings scatter; cell line not stated here;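 also: potency is read from the fitted curve at half-maximal effect; % of control where 0% means no effect; nearly all actives have a fitted effect of over 65% in size; a mitochondrial uncoupler was the plate control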
#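 A stable cell line was treated with compounds at 5 concentrations for 24 hours, with CCCP as control. PINK1 levels and mitochondrial localization were measured by immunofluorescence with mitochondrial, cell and nuclear markers after fixation, read by laser-scanning cytometry.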
# TRPML1 agonist = human mucolipin-1 channel agonism; Q9GZU1; TRPML1-expressing cells, Ca2+ dye fluorescence, FDSS; host cell line not named in the record; reference of the full effect not given here; activation, % (test concentration not listed); actives 0.12% (n = 410,000); AID 624414; in the data active = activation above about 50%; inconclusive = about 30% to 50%; inactive = below about 30%; also: 0% is about no effect; the text of the record puts the active cut at 80%
#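 Cells: TRPML1-DL, 1X Tet inducer, ~16 h at 37 degrees C/5% CO2. Dye: ABD Ca8 no-wash + quencher, 45-90 min RT. Read: 10 s baseline, compound add, 110 s agonist phase; 54-4 EC80 (4uM final), 110 s antagonist phase.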
# Menin-MLL FL inh = menin-MLL binding inhibition, fluorescein peptide. 290,000 tested, under 10 active. Fluorescence polarization, fluorescein-MLL peptide displacement from menin. AID 1766. FP activity change, % at 61.4 µM; inconclusive = falling polarisation curve, or a change in total fluorescence; inactive = total fluorescence flat and polarisation flat or rising; no compound was filed as active; the % refers to the polarisation; negative = inhibition;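 also: % of control where 0% means no effect; inhibitors lower the polarisation; unlabelled MLL peptide was the positive control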
# * hit, by the source's call; ? = inconclusive; · = not tested or not shown; & = joins results of further samples; ! = not active in a repeat; [ ] = dose if it differs, or a comment.
SMILES,Sfp inh,TRPML1 blocker,ClpP mod,TRPV1 potentiator,PINK1 expr mod,TRPML1 agonist,Menin-MLL FL inh
COc1cccc(N2CCN(c3nc(-c4ccccc4C)cc(=O)[nH]3)CC2)c1,-3.7%,10.7,-5.8%,13.0,8.5%,3.8,1.2
Cc1onc(-c2ccccc2)c1NC(=O)N(Cc1ccccc1)C(C)C,-7.3%,-6.7,-0.7%,-8.5,-0.6%,1.0,-0.9
CC(C)Cc1nn2c(N)c(/C=C3\C=Nc4ccccc43)c(=O)nc2s1,5.9%,-1.0,·,3.9,6.3%,0.1,0.2
O=C(COC(=O)c1ccc(Cl)c(S(=O)(=O)N2CCCC2)c1)NC1CCCC1,23.4%,0.6,0.3%,-10.9,-2.4%,0.7,-0.9
COc1cccc(C2c3cc4c(cc3OC(N3CCOCC3)C2C)OCO4)c1O (configuration not stated),·,-3.9,8.4%,·,3.9%,1.9,·
Fc1cccc(CN2CCC(Cc3ccccc3)CC2)c1,8.3%,4.9,-0.1%,23.9,3.1%,-0.3,4.7
Cc1nnc(N2C(=O)C(O)=C(C(=O)c3ccco3)C2c2ccc(C(C)(C)C)cc2)s1 (configuration not stated),1.4%,5.9,-1.8%,-17.2,1.4%,3.1,3.5
COc1ccc(CCN2C(=O)CSC2=Nc2ccc(C(C)C)cc2)cc1OC,-5.3%,1.9,·,-5.4,4.8%,3.2,2.1
O=C(NCc1ccncc1)/C(=N/O)c1ccccc1,13.2%,1.9,-0.9%,-1.5,1.1%,7.1,-2.7
C=CCN=C1SC(C)C(=O)N1S(=O)(=O)c1ccccc1 (configuration not stated),9.9%,14.0,-2.1%,3.5,4.7%,-0.1,3.7
CCC(C)N1CC23C=CC(O2)C(C(=O)OCc2ccccc2)C3C1=O (configuration not stated),14.8%,-6.4,-0.5%,4.7,-0.9%,-0.5,0.8
O=S(=O)(N/N=C\c1ccc2c(c1)OCO2)c1ccccc1,7.0%,57.4,-1.4%,8.1,2.9%,0.0,-2.4
COCCSc1ccccc1C(=O)N1CCN(Cc2ccccc2)CC1,10.7%,14.9,0.2%,-3.9,0.2%,4.3,-1.8
Cc1ccc(CN(c2ccc(C(=O)N3CCc4ccccc4C3)cc2)S(C)(=O)=O)cc1,6.7%,-5.4,-0.9%,-2.9,5.8%[38.3 µM],-0.3,3.0
CCOC(=O)N1CCN(C(=O)c2ccc(C)c(S(=O)(=O)Nc3ccccc3)c2)CC1,-3.1%,3.0,-2.7%,8.9,3.7%,3.2,4.5
CCCC(=O)NC(=S)Nc1sc2c(c1C(N)=O)CCC2,39.8µM*,-0.3,0.2%,-3.9,0.4%,2.9,7.9
CC(C)n1c(=N)c(C(=O)NCCc2ccccc2)cc2c(=O)n3ccccc3nc21,12.5%,13.1,39.5%,0.3,-0.4%,-0.4,1.8
CCc1ccc(NC(=O)Cn2c(=O)n(CCCC(=O)NCc3ccc4c(c3)OCO4)c(=O)c3ccccc32)cc1,·,3.2,-7.5%,·,3.6%,-0.9,·
Cc1ccc(NS(=O)(=O)c2ccc(CCC(=O)O)cc2)cc1,24.4%,-6.8,0.2%,20.0,0.8%[38.3 µM],-0.3,-0.1
CC(C(=O)N1CCc2ccccc21)N1CCN(S(=O)(=O)c2cccc(C(F)(F)F)c2)CC1 (configuration not stated),·,37.2,4.0%,-9.0,1.6%,1.4,·
CCc1nnc(NC(=O)CCN2C(=O)c3ccccc3C2=O)s1,11.3%,3.8,-1.5%,?,-5.4%[38.3 µM],-0.7,2.4
O=C1CCN(S(=O)(=O)c2ccccc2)CCN1CCOCc1ccc(Cl)cc1,-5.9%,-8.5,0.5%,-18.4,-0.1%,-0.6,0.5
O=c1[nH]cnc2ncc(-c3ccc(O)cc3)nc12,·,3.7,-0.7%,·,1.6%,-0.4,·
COc1ccc(/C=N/Nc2ccccc2C(=O)O)cc1Cn1cc([N+](=O)[O-])cn1,5.7%,-2.4,·,·,0.5%,1.7,10.2
CC(=O)N/C(=C/c1ccccc1)C(=O)N1CCCCC1,8.3%,-4.2,1.6%,5.4,-2.0%,0.6,1.2
O=C(/C=C/c1ccc2c(c1)OCO2)N1CCN(c2ccccc2F)CC1,-2.5%,-14.5,-12.5%,-12.7,-0.3%,1.0,-1.3
COc1ccc(S(=O)(=O)NCCC(=O)NC2CCCCC2C)cc1[N+](=O)[O-] (configuration not stated),·,-12.0,·,·,-2.0%,-0.6,·
Cc1cccc(NC(=O)CNC(=O)CCNC(=O)c2ccc(C(C)(C)C)cc2)c1C,·,-9.7,1.4%,-3.5,0.2%,-0.7,·
Cc1cc(C)n2cc(CSc3nnc(SCc4cn5c(C)cc(C)nc5n4)s3)nc2n1,15.3%,·,·,?,·,·,-0.8
C=CCC1c2cccc(C(=O)OC)c2C(=O)N1c1ccccc1 (configuration not stated),-13.9%,-19.3,-0.8%,8.9,-1.1%,1.0,3.1
NC(=NCCCCCCN=C(N)/N=C(\N)Nc1ccc(Cl)cc1)/N=C(\N)Nc1ccc(Cl)cc1,28.2µM*!,-3.6&-4.5&3.4,-0.7%&1.0%&-0.4%,-1.0&2.0&0.3,?,?,-13.2
Cc1nc(CCNC(=O)CC2C(=O)NCCN2CC(C)C)nc2c1CCC2 (configuration not stated),13.2%,11.4,?,3.1,2.6%,-0.1,·
COc1cccc(-c2cnc(C(O)c3ccc(CN4CCCC4)cc3)[nH]2)c1 (configuration not stated),·,·,-0.6%,·,-1.4%,-0.4,·
Cc1cccc(N2CCN(C(=O)c3sc4nc5n(c(=O)c4c3C)CCC5)CC2C)c1 (configuration not stated),·,-2.8,0.6%,·,1.2%,-0.8,·
COc1ccc(CNC(=O)C2CC(c3ccccc3C(F)(F)F)=NO2)cc1 (configuration not stated),13.1%,-6.3,-0.5%,24.8,0.7%,1.0,1.9
O=C(Nc1ccccc1N1CCCCC1)c1ccc2nccnc2c1,-3.2%,-4.7,0.6%,-15.7,1.9%,1.5,-2.0
CC(=O)c1cccc(OC(=O)c2ccc3c(=O)n4c(nc3c2)CCC4)c1,·,-10.3,-5.4%,-11.0,5.0%,1.0,·
Cc1sc(NC(=O)CSc2nc(O)cc(=O)[nH]2)nc1-c1ccccc1,2.9%,-6.7,·,6.7,2.7%,-0.4,3.1
Cc1ccc(CN2CCN(CC(=O)N/N=C/c3c[nH]c4ccccc34)CC2)cc1,28.1%,24.5,0.4%,6.3,0.3%,0.6,4.8
CCc1ccc2c(CN(CC)Cc3nc4ccccc4c(=O)[nH]3)cc(=O)oc2c1,-21.2%,12.3,-3.8%,-8.3,-0.3%,-1.4,7.1
Cc1cc([N+](=O)[O-])ccc1NC(c1nnc(-c2ccccc2)o1)c1ccccc1F (configuration not stated),·,-15.5,1.7%,·,0.9%,2.9,·
COc1ccc(N2C(=O)CC(NC3CC3)C2=O)cc1 (configuration not stated),-6.9%,9.0,0.3%,6.2,0.0%,0.9,0.6
CCc1ccc(CN2CCCC(C(=O)N3CCCCC3)C2)cc1 (configuration not stated),-2.6%,0.1,·,-13.4,0.7%,0.2,-1.7
COc1ccc(OC)c(/C=C/C(=O)NCCc2nc3ccccc3[nH]2)c1,-16.7%,19.4,·,-10.8,0.9%,-0.4,-2.4
CCc1cccc(C)c1NC(=O)CCCN1C(=O)CN(C)C1=O,·,-4.7,2.1%,6.8,2.3%,4.0,·
O=C(Nc1nccs1)[C@@H]1CCCN1S(=O)(=O)c1ccccc1F,·,-3.8,-2.0%,13.7,0.1%,-0.3,·
Nc1c(C(=O)Nc2ccc(C(=O)O)cc2)sc2nc3c(cc12)CCCC3,·,18.8,-26.8%,·,1.5%,-0.6,·
COc1ccc(C2CC(c3ccccc3)=NN2c2ccccc2)c(C(=O)O)c1OC (configuration not stated),24.4%,-4.0,-0.1%,8.4,-1.7%,-1.0,-1.2
CC(=O)N1c2ccc(S(=O)(=O)N(C)Cc3ccccc3)cc2CC1C (configuration not stated),2.0%,2.9,·,?,1.9%,-0.4,·
c1ccc(CSc2nnnn2-c2ccccc2)cc1,-10.3%,12.5,0.7%,4.3,·,1.7,-0.7
# Continuation:
SMILES,Sfp inh,TRPML1 blocker,ClpP mod,TRPV1 potentiator,PINK1 expr mod,TRPML1 agonist,Menin-MLL FL inh
CC1CCCCC1NC(=O)Cn1cnc2sccc2c1=O (configuration not stated),·,26.3,·,13.5,1.0%,-1.0,·
CCOC(=O)c1cnn(-c2ccc(NS(=O)(=O)c3ccc(Cl)cc3)cc2)c1C(F)(F)F,21.6%,-7.0,-2.6%,-4.0,21.7%,0.9,1.1
O=C(COc1ccc(F)cc1)Nc1nnc(C2CC2)s1,·,0.4,·,4.4,-0.3%,1.7,·
Cc1cc(NCCCN(C)C)n2nc(-c3cccs3)cc2n1,10.1%,11.7,28.2µM*,-10.1,?,0.0,0.5
CC1(C)Cc2c(c(N3CCOCC3)nc3sc(-c4ccc(C(=O)O)o4)c(N)c23)CO1,44.7µM*,-4.8,?,?,0.6%,0.7,?
Cc1ccc(-c2nn(-c3ccccc3)cc2/C=C/C(=O)Nc2cccc(S(N)(=O)=O)c2)cc1,12.2%,7.4,3.3%,28.6,7.7%,0.6,-0.8
CCCc1cc(=O)[nH]c(SCC(=O)Nc2ncc(S(=O)(=O)c3ccc([N+](=O)[O-])cc3)s2)n1,1.4%,-3.3,-1.9%,9.3,-0.4%,-0.6,-1.2
S=C(NCc1ccco1)N1CCN(Cc2ccco2)CC1,-29.6%,-2.9,-0.7%,10.9,-1.1%,1.1,-0.4
COc1cc(NS(=O)(=O)c2ccc(NC(=S)Nc3ccccc3)cc2)nc(OC)n1,-0.7%,10.9,1.1%,-6.7,0.3%,0.0,·
Cc1cc(C)cc(C(=O)NC(CC(N)=O)c2ccc(N3CCN(c4ccccc4)CC3)c([N+](=O)[O-])c2)c1 (configuration not stated),9.8%,-7.3,-2.8%,13.8,1.1%,0.8,3.0
CNC[C@@H]1Oc2cc(Br)ccc2S(=O)(=O)N([C@@H](C)CO)C[C@@H]1C,·,-10.1,-0.6%,·,0.0%,0.0,·
COc1ccc(CNC(=O)C(C)OC(=O)c2cccs2)cc1 (configuration not stated),19.8%,6.2,·,-35.7,0.7%,-0.3,1.7

# Rows were taken by chance (roughly 4.4% active in at least one column).
